Compound activity deposited in PubChem BioAssay by several laboratories.
bCat nuc transl = modulators of beta-catenin nuclear translocation, primary screen, imaging, HeLa cells, immunofluorescence, high-content. nuclear translocation activity, % at 5 µM. 0.3% of 190,000 active;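 active = nuclear translocation activity above 50% at 5 µM, with a well cell count of 50 or more; inconclusive = wells under 50 cells across six images, flagged as toxic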;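 note: per-cell ratio of nuclear to cytoplasmic median beta-catenin stain intensity; plate controls were DMSO negative control for no effect and GSK-3 inhibitor IX positive control for full effect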
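Read-out: Nuclear/cytoplasmic beta-catenin signal ratio, % activation | Assay system: Human HeLa cell line | Times: 24 h compound exposure at 37°C, 5% CO2 | Signal: Fluorescence imaging of beta-catenin antibody stain plus DAPI | Dosing: 5 µM primary, 0.02–20 µM confirmation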
Ins promoter up = insulin promoter activators in MIN6 cells, imaging, high-content screening, mouse beta cells; 0.3% of 190,000 active; z-score at 5 µM; MIN6 insulin promoter-GFP reporter; stronger effect = higher value;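 active = z-score above 3 at 5 µM with at least 500 cells counted in the well; inconclusive = wells under 500 cells, flagged as cytotoxic or low count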
Dynein transport = inhibitors of GR-EGFP nuclear translocation, primary screen, dynein cargo transport inhibitor project, imaging, high-content, 3617.4 mouse cells | test concentration mostly 20 µM; stimulated with dexamethasone, 1 µM; stronger effect = lower value | z-score, hits read low | 0.47% of 220,000 active | AID 1381, 2008;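 active = plate z-score of nuclear minus cytoplasmic receptor signal below a set negative limit, without overly bright fluorescence or cell loss, cut at about -3.5 in these data, passing the limit was not always enough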;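 note: z-score of nuclear minus cytoplasmic ring GR-EGFP intensity difference per well; some compounds called inactive have numbers as strong as hits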
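Also added: dexamethasone, 1.0 µM final. Medium: tet-free, stripped-serum medium. Detection: fixed, Hoechst-stained cells imaged at 10x for EGFP. Read-out: nuclear-to-cytoplasmic GR-EGFP distribution per well. Times: induction 48 h, compound 1 h, agonist 30 min.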
Yfh1-depleted yeast = enhancers of respiration in Yfh1-depleted yeast, dose response, Friedreich's ataxia, plus single-dose screen (AID 1465). S. cerevisiae Yfh1-off respiration, WST-1 reduction, 72 h; higher fold induction means a stronger effect. 0.074% of 220,000 active. one-dose fold induction at 50 µM; EC50 in µM for titrated hits;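 active = fold induction of absorbance versus untreated yeast above a set limit, then at least 30% activation at any dose in follow-up; inconclusive = repeats straddling the limit, or above it without dose testing; inactive = fold induction below the set limit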;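 note: activators that raise dye reduction in frataxin-depleted yeast; strong numbers were not always called active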
P. falciparum M17LAP = P. falciparum M17LAP inhibitors, primary screen, biochemical, fluorogenic H-Leu-NHMec substrate, 1536-well (AID 1619); recombinant M17LAP, H-Leu-NHMec fluorogenic kinetic assay; higher % means a stronger effect; 0.38% of 220,000 active; Leucine aminopeptidase (Plasmodium falciparum (isolate 3D7)); inhibition, % at 30 µM, or IC50 in µM where a hit was titrated;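 active = compound inhibiting the enzyme by more than half at any dose during confirmatory dose-response retesting; inconclusive = strong single-dose inhibitors picked by rank but not retested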;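 note: plate controls were full reaction with DMSO carrier for no effect and no enzyme background for full effect; strong numbers were not always called active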
Autophagy mod = autophagy modulators in MEF cells, primary screen, imaging, high-content, MEF GFP-LC3 | MEF GFP-LC3 puncta imaging; test concentration mostly 10 µM | 0.98% of 190,000 active | calls only at 10 µM (by protocol);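 active = percentage of spot-positive cells more than 3 SD above its plate mean, without a fluorescence outlier flag or 80% toxicity; inconclusive = no clear call, values can overlap the other calls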;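 note: spot-positive cell cutoff set from DMSO-treated cells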
MT stabilizer = microtubule stabilizers in HeLa cells, primary screen, imaging, high-content imaging | HeLa tubulin immunostaining HCS, 24 h; share of cells brighter than vehicle mean+2SD | 0.83% of 200,000 active | % tubulin-high responders, % at 10 µM;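 active = plate Z-score above 3 for both tubulin-high and condensed-nucleus cell shares, with cell loss under 80%, at 10 µM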;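 note: anti alpha tubulin signal scored within the nucleus-defined area of each cell; some results filed as inactive read as strong as hits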
Dynein transport cytoplasmic EGFP = further read-out of Dynein transport, marked with its call; z-score; measured here: cytoplasmic GR-EGFP intensity; stronger effect = higher value
Dynein transport nuclear GR-EGFP = further read-out of Dynein transport, marked with its call; z-score; measured here: nuclear GR-EGFP intensity;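 lower value marks the stronger effect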
Dynein transport cell count = recorded beside Dynein transport, whose call it bears; z-score; measured here: cell count per field
Ins promoter up cell count = further read-out of Ins promoter up, marked with its call; cell count; measured here: cytotoxicity, nuclei count;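 total cells summed across four imaged fields per well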
bCat nuc transl cell count 5 µM = second read-out of bCat nuc transl, no call of its own (marks repeat the call); cell count; measured here: cell count, cytotoxicity flag
MT stabilizer Hoechst-high % = second read-out of MT stabilizer, no call of its own (marks repeat the call); % Hoechst-high responders; measured here: nuclear condensation Hoechst responders;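 share of cells brighter than vehicle mean plus two SD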
MT stabilizer cytotoxicity % = second read-out of MT stabilizer, no call of its own (marks repeat the call); toxicity, %; measured here: cytotoxicity by cell density;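 0% = mean cell density of plate MIN control wells and 100% = no cells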
Autophagy mod cell loss 18 h = further read-out of Autophagy mod, marked with its call; toxicity, %; measured here: cell loss, nuclei count;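 cell loss after 18 h compound exposure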
* = called active by the depositor; i = inactive; u = inconclusive; x = no result given; & = joins results of further samples; ! = not active in a repeat. An excerpt (hit frequency here may not be typical).

SMILES	bCat nuc transl	bCat nuc transl cell count 5 µM	Ins promoter up	Ins promoter up cell count	Dynein transport	Dynein transport cytoplasmic EGFP	Dynein transport nuclear GR-EGFP	Dynein transport cell count	Yfh1-depleted yeast	P. falciparum M17LAP	Autophagy mod	Autophagy mod cell loss 18 h	MT stabilizer	MT stabilizer Hoechst-high %	MT stabilizer cytotoxicity %
O=C(Nc1nnc(-c2ccco2)o1)c1ccc2ccccc2c1	-6.8	507	-0.05	1447	0.16	-0.31	-0.35	-0.15	i	18%	i	-12	4.6	3.7	1.6
CCN(CC)S(=O)(=O)c1ccc(NC(=O)Nc2cccc(C(F)(F)F)c2)cc1	-0.1	1121	-0.28	881	1.1	0.35	1.1	-1.4	i	-4%	i	25	1.8	1.2	6.5
O=c1[nH]c(=O)n(Cc2ccco2)c2c1C(C(F)(F)F)(C(F)(F)F)N=C(c1ccc(F)cc1)N2	-0.6	907	1.6	729	0.59	-0.25	0.95	0.51	i	3%	i	2	2.2	0.7	1.0
CCCCN(CCCC)c1nc(OC)nc(-n2nnc(C(C)=O)c2C)n1	x	x	x	x	-0.6	-0.24	-0.95	1.2	i	10%	i	5	0.9	1.1	7.1
COc1ccc(/C=C/C(=O)NCc2c(C)nn(C)c2C)cc1COc1ccc(Br)cc1	x	x	x	x	-0.38	-0.24	-0.75	1.1	i	3%	i	-5	2.5	1.9	8.7
NC(=S)n1[nH]c(-c2ccc([N+](=O)[O-])cc2)c(N=Nc2ccc(Cl)cc2)c1=O	-2.4	844	-5	875	2.3	0.048	1.6	-1.7	i	13%	i	11	2.5	1.8	13
Cc1conc1NC(c1cccs1)c1ccc2cccnc2c1O (centres undefined)	2.3	1414	-0.22	1618	2.4	0.068	1.4	-2.2	i	12%	i	9	6.3	1.8	37
Cc1[nH]c(=O)c(C(=O)/C=C/c2ccccc2)c2c1CCCC2	0.7	1014	-0.42	1612	-3.9*	0.35*	-1.7*	0.36*	i	4%	i	9	20	4.7	39
Cc1ccn2cc(-c3cccc([N+](=O)[O-])c3)nc2c1	0.4	1552	x	x	-0.74	-0.28	-0.14	0.41	i	-3%	i	-21	2.4	2.0	6.0
CCCCCCCCCn1ccc(=N)cc1	5.5	982	u	x	1.2	-0.17	1.1	-0.74	x	x	x	x	x	x	x
Cn1cc([N+](=O)[O-])c(C(=O)Nc2nc(-c3ccc(Cl)cc3)cs2)n1	6.9	1057	0.41	1861	-3.9*	0.43*	-2.2*	0.039*	i	2%	i	-9	50	8.3	94
O=C1CCCC2=C1C(c1ccc(Cl)cc1)C1C(=O)c3ccccc3C1=N2 (centres undefined)	x	x	x	x	0.18	-0.18	0.41	0.18	i	-10%	i	9	1.9	1.7	8.2
COc1ccc(-c2noc(-c3ccccc3F)n2)cc1	x	x	0.62	1009	-1.3	0.16	-0.59	0.75	i	-4%	i	1	1.8	5.2	3.9
O=C(Oc1c(-c2ccccc2)c(=O)n2c3c(cccc13)CC2)c1ccccc1	0.8	1300	0.83	1166	-0.82	-0.23	-0.26	0.53	i	-3%	x	x	x	x	x
Cn1c(=O)c(C(=O)CCl)c(N)n(Cc2ccccc2)c1=O	x	x	-0.95	1014	-0.16	-0.31	0.27	0.79	i	-9%	i	15	2.7	2.5	5.5
CCOC(=O)C1CCN(C(c2cccnc2)c2c(NC(=O)c3ccco3)sc(C)c2C)CC1 (centres undefined)	-2.3	713	-0.06	831	-0.99	-0.28	-1.1	0.64	x	0%	i	-1	5.9	5.5	9.8
Cc1ccc(NC(=O)O/N=C/c2c(C)nn(C(C)(C)C)c2C)cc1Cl	0.7	1012	0.73	1459	-0.66	-0.24	-0.37	1.7	i	6%	x	x	x	x	x
CC(NC(=O)OC(C)(C)C)C(=O)Oc1cc2oc(=O)cc(-c3ccccc3)c2cc1Cl (centres undefined)	0.5	1001	-0.79	1787	-1.9	-0.0041	-1	0.79	i	-3%	i	17	3.2	1.5	2.2
CNC(=O)COC(=O)c1ccccc1C(=O)c1ccc(Cl)c([N+](=O)[O-])c1	4.2	977	-2.5	547	-4.3*	2.1*	-2.4*	-0.42*	i	-5%	i	-7	3.5	3.1	1.5
Cc1ccc2c(c1)[C@@H]1CN(C)CC[C@@H]1N2S(=O)(=O)c1ccc([N+](=O)[O-])cc1	x	x	x	x	-0.23	-0.24	-0.021	0.49	i	-7%	i	-1	3.8	1.8	2.4
CCOc1cc(/C=C2/C(=O)N(c3ccccc3)N=C2C)ccc1OC(=O)c1cccs1	x	x	x	x	-0.37	-0.16	0.12	-0.62	i	3%	i	-28	1.6	1.5	3.0
O=C(Nc1cccc(C(=O)N2CCCC2)c1)c1ccccc1	x	x	-1.2	1081	0.47	-0.23	0.25	1.2	i	0%	i	3	1.6	2.2	10
O=C(c1ccc(S(=O)(=O)c2cccc(Cl)c2)c([N+](=O)[O-])c1)N1CCN(Cc2ccccc2)CC1	1.0	1154	x	x	-0.96	0.1	-0.7	0.4	i	-14%	i	-8	5.6	7.8	6.1
C=CS(=O)(=O)c1ccc(Oc2ccc(S(=O)(=O)C=C)cc2)cc1	1.1	868	0.72	2329	-4*	1.9*	-2.2*	0.23*	i	-2%	i	2	2.4	2.4	5.8
O=C(N/N=C/c1ccc([N+](=O)[O-])o1)c1ccccc1NS(=O)(=O)c1cccs1	1.2	1291	-0.45	1190	-0.12	-0.23	-0.021	0.11	i	4%	x	x	x	x	x
SMILES	bCat nuc transl	bCat nuc transl cell count 5 µM	Ins promoter up	Ins promoter up cell count	Dynein transport	Dynein transport cytoplasmic EGFP	Dynein transport nuclear GR-EGFP	Dynein transport cell count	Yfh1-depleted yeast	P. falciparum M17LAP	Autophagy mod	Autophagy mod cell loss 18 h	MT stabilizer	MT stabilizer Hoechst-high %	MT stabilizer cytotoxicity %
CCOC(=O)c1c(NC(=S)NCCc2ccccc2)sc2c1CC(C(C)C)OC2 (centres undefined)	-2.7	1033	0.33	1422	0.51	-0.2	0.29	0.037	i	-2%	i	9	5.5	1.6	3.3
COc1ccc(Oc2nc3c(c(=O)n(C)c(=O)n3C)n2Cc2ccccc2)cc1	x	x	-0.32	838	-0.33	-0.22	0.0096	1	i	-14%	i	-5	2.4	1.2	7.8
Cc1cc(=O)oc2cc(NC(=O)CCC(=O)O)ccc12	x	x	x	x	0.53	-0.22	0.87	-0.21	i	-180%	i	11	2.4	1.5	8.8
COc1ccccc1N1CCN(c2nc(C)nc3c2oc2ccccc23)CC1	81*	314*	0.7	735	-0.32	0.38	-0.17	0.0089	i	10%	i	40	20*	44*	51*
Cc1sc(NC(=O)CN2CCOCC2)c(C(=O)c2ccccc2)c1C	x	x	x	x	-0.58	0.19	0.17	0.0016	i	3%	i	17	2.7	2.7	6.5
COc1ccc(-c2[nH]ncc2-c2ccc3c(c2)OCCO3)c(O)c1	6.6	1088	-2.8	882	-0.61	-0.13	-0.022	0.34	i	-5%	i	-1	3.9	1.3	7.4
O=C(Nc1cccc(S(=O)(=O)N2CCCCC2)c1)c1ccccc1NS(=O)(=O)c1ccc(F)cc1	-1.5	1052	-1.4	1134	-0.016	-0.24	-0.13	0.67	i	5%	i	12	4.5	1.6	6.7
N#Cc1c(NC(=O)CSc2ncn[nH]2)sc2c1CCCC2	x	x	-0.85	994	-0.38	-0.19	-0.31	0.23	i	4.8µM*	i	4	5.8	2.5	9.0
Cc1ccc(OCC(=O)c2cc(C)n(Cc3ccco3)c2C)c([N+](=O)[O-])n1	-1.5	1375	0.32	717	1.5	-0.55	0.64	-2.2	i	x	x	x	x	x	x
CCc1oc2ccccc2c1C(=O)c1cc(Br)c(O)c(Br)c1	-1.6&0.1	550&1342	x	x	0.15&-0.45	-0.27&-0.26	0.27&0.17	0.42&1.3	i	82µM*!	i	2	2.8	1.5	2.1
CN1/C(=C\C=[N+](C)c2ccccc2)C(C)(C)c2ccccc21	x	x	x	x	-0.24	-0.17	-0.64	0.33	i	12%	i	25	1.4	1.9	6.0
Cc1ccccc1OCC1Cn2c(nc3c2c(=O)[nH]c(=O)n3C)O1 (centres undefined)	x	x	x	x	-0.5	-0.19	-0.16	0.24	i	-8%	i	-14	1.5	2.7	9.0
O=C(Oc1c(-c2ccccc2)c(=O)n2c3c(cccc13)CC2)c1ccc(Cl)cc1	-0.6	1226	0.27	1020	3.1	-0.17	1.4	-1.1	i	-7%	x	x	x	x	x
CCCCNc1cc(=O)n(C)c(=O)n1C	x	x	x	x	-0.24	-0.23	-0.13	0.68	i	-13%	i	-15	1.1	1.8	5.7
N#CC(C#N)=C(Nc1ccc(F)cc1)SCc1cccc(F)c1	-4.2	575	0.09	815	0.88	-0.28	0.087	-0.44	i	-3%	i	2	2.1	0.7	8.5
CN(C)CC(CCC(CN(C)C)C(=O)c1ccccc1)C(=O)c1ccccc1 (centres undefined)	0.1	1308	-1.9	541	-5*	1.4*	-2.5*	1.2*	i	-2%	x	x	x	x	x
O=C(NCc1ccco1)c1nc2c(nnn2Cc2cccc(Cl)c2)c(=O)[nH]1	x	x	x	x	0.29	-0.26	-0.75	0.44	i	32%	i	1	2.8	2.0	1.3

Entries of single compounds, quoted from the list. Values in the order: bCat nuc transl	bCat nuc transl cell count 5 µM	Ins promoter up	Ins promoter up cell count	Dynein transport	Dynein transport cytoplasmic EGFP	Dynein transport nuclear GR-EGFP	Dynein transport cell count	Yfh1-depleted yeast	P. falciparum M17LAP	Autophagy mod	Autophagy mod cell loss 18 h	MT stabilizer	MT stabilizer Hoechst-high %	MT stabilizer cytotoxicity %
`Cc1cc(=O)oc2cc(NC(=O)CCC(=O)O)ccc12` is listed with x	x	x	x	0.53	-0.22	0.87	-0.21	i	-180%	i	11	2.4	1.5	8.8
`Cc1ccccc1OCC1Cn2c(nc3c2c(=O)[nH]c(=O)n3C)O1` (centres undefined) is listed with x	x	x	x	-0.5	-0.19	-0.16	0.24	i	-8%	i	-14	1.5	2.7	9.0
`Cc1sc(NC(=O)CN2CCOCC2)c(C(=O)c2ccccc2)c1C` is listed with x	x	x	x	-0.58	0.19	0.17	0.0016	i	3%	i	17	2.7	2.7	6.5
